Bioassay records: PubChem, Broad Institute
Vaccinia stage: Vaccinia orthopox stage-specific inhibition. activity change (mCherry), % (test concentration not listed). 0.01% of 89,000 active. Vaccinia-infected cells, mCherry/Venus stage reporter fluorescence; active compounds read low; some inactives read as strong as hits;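 active means mCherry past -33% and 40 or more points under the early reporter, replicates agreeing; inconclusive means past -33% without that gap or agreement; tested in A549 cells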;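 further: scaled between vehicle wells and reference inhibitor wells; 23 nL library stock went into each well; one replicate is shown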
Vaccinia stage Venus: further read-out of Vaccinia stage, marked with its call; activity change (Venus), %; measured here: Venus reporter, other viral stage;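 negative = less Venus signal; first of two replicates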
Active calls of the source: *; ? = inconclusive; · = not tested or not shown; & = joins results of further samples.

The line under a structure holds: Vaccinia stage	Vaccinia stage Venus
CO[C@H]1CN(C)C(=O)c2ccc(NC(=O)Nc3ccc(Cl)cc3)cc2OC[C@H](C)N(C(=O)Nc2c(C)noc2C)C[C@@H]1C
    5	-1
CNC[C@H]1[C@@H](c2ccccc2)[C@@H](CO)N1C(=O)Nc1cccc(OC)c1
    -8	-4
COc1ccc(S(=O)(=O)Nc2ccc3c(c2)C(=O)N([C@H](C)CO)C[C@H](C)[C@@H](CN(C)S(=O)(=O)c2ccc(C)cc2)OCCCC[C@H](C)O3)cc1
    ?	·
C[C@@H]1CCCCO[C@@H](CN(C)C)[C@H](C)CN([C@H](C)CO)C(=O)c2cc(NC(=O)Nc3ccc(F)cc3)ccc2O1
    5	13
O=C(N[C@@H]1CC[C@@H](CCNS(=O)(=O)c2ccc(F)cc2)O[C@H]1CO)c1cccc(F)c1
    -3	-6
O=C(C[C@@H]1CC[C@@H](NC(=O)Nc2ccccc2F)[C@H](CO)O1)NCc1ccc(Cl)cc1
    -4	-2
N#C[C@@H]1[C@H](c2ccccc2C2=CCCCC2)[C@@H](CO)N1C(=O)NC1CCCCC1
    -10	3
C[C@H](CO)N1C[C@H](C)[C@H](CN(C)Cc2ccc(-c3ccccc3)cc2)Oc2ncc(C#CCN(C)C)cc2C1=O
    ?	·
Cc1ccc(S(=O)(=O)Nc2ccc3c(c2)C(=O)N([C@@H](C)CO)C[C@H](C)[C@H](CN(C)CC2CCCCC2)OCCCC[C@@H](C)O3)cc1
    ?	·
OC[C@@H]1[C@H](c2ccc(/C=C/c3ccccc3)cc2)[C@H]2CN(Cc3cccnc3)CCCCN12
    ?	·
O=C(Nc1ccc(Cl)c(Cl)c1)N[C@H]1CC[C@@H](CCNC(=O)c2ccc(F)cc2)O[C@H]1CO
    -9	-8
COc1ccccc1-c1cnc2c(c1)C(=O)N([C@H](C)CO)C[C@H](C)[C@H](CN(C)Cc1cccnc1)O2
    7	10
C/C=C/c1ccc([C@H]2[C@@H](CO)N3C(=O)CN(S(=O)(=O)c4ccccc4)C[C@H]23)cc1
    -2	2
C[C@@H]1CN([C@@H](C)CO)C(=O)c2cc(NC(=O)Nc3ccccc3)ccc2O[C@@H]1CN(C)Cc1ccc(Oc2ccccc2)cc1
    ?	·
COc1ccc(-c2cnc3c(c2)C(=O)N([C@@H](C)CO)C[C@H](C)[C@@H](CN(C)C(=O)CN(C)C)O3)cc1
    24	11
C[C@H]1CN([C@@H](C)CO)C(=O)c2ccccc2-c2ccccc2CO[C@H]1CN(C)S(C)(=O)=O
    26	6
COc1ccccc1NC(=O)N[C@H]1C=C[C@H](CC(=O)N[C@@H](C)c2ccccc2)O[C@@H]1CO
    -6	0
CCCNC(=O)C[C@@H]1CC[C@H]2[C@@H](COC[C@H](O)CN2C(=O)Nc2c(C)noc2C)O1
    4	15
COCC#Cc1ccc2c(c1)O[C@H](CN(C)C(=O)Nc1ccc(OC)cc1)[C@@H](C)CN([C@@H](C)CO)S2(=O)=O
    8	-8
C[C@@H]1CN([C@H](C)CO)C(=O)c2cccc(NC(=O)C3CCCCC3)c2O[C@@H]1CN(C)CC1CCCCC1
    -5	0
Cc1ccccc1-c1ccc([C@H]2[C@H]3CN(C(=O)c4cccnc4)CCCCN3[C@H]2CO)cc1
    ?	·
O=C(CCN1CCCCC1)N[C@H]1C=C[C@H](CC(=O)N2CCC(Cc3ccccc3)CC2)O[C@H]1CO
    -17	-11
COc1ccccc1-c1ccc2c(c1)[C@@H]1[C@@H](CCN1S(=O)(=O)c1cn(C)cn1)[C@@H](CO)N2
    -31	-29
Cc1ccc(-c2cnc3c(c2)C(=O)N([C@H](C)CO)C[C@H](C)[C@@H](CN(C)S(C)(=O)=O)O3)cc1
    -3	-2
C[C@H]1CN([C@@H](C)CO)C(=O)c2cc(NC(=O)CCN3CCOCC3)ccc2O[C@H]1CN(C)Cc1ccc(Oc2ccccc2)cc1
    -10	-4
O=C(C1CCOCC1)N1C[C@H]2[C@@H](c3ccccc31)[C@@H](CO)N2Cc1ccc(Cl)cc1
    -6	-4
Cc1ccc(-c2ccc([C@@H]3[C@H](CO)N4CCCCN(C(=O)c5ccncc5)C[C@@H]34)cc2)cc1
    -26	-33
C/C=C/c1ccc2c(c1)O[C@@H](CN(C)C(=O)NCCC)[C@H](C)CN([C@H](C)CO)S2(=O)=O
    -8	3
C[C@H]1CN([C@@H](C)CO)C(=O)CCCn2nncc2CO[C@@H]1CN(C)Cc1ccc2cccnc2c1
    3	-4
O=C(C[C@@H]1C=C[C@@H](NC(=O)Nc2cc(F)ccc2F)[C@@H](CO)O1)NCCCN1CCOCC1
    5	10
COc1cccc(-c2ccc([C@H]3[C@H]4CN(C(=O)c5ccc6c(c5)OCO6)CCCCN4[C@H]3CO)cc2)c1
    -22	-26
COCC(=O)N1CC[C@@H]2[C@@H](CO)Nc3ccc(C#Cc4ccc(F)cc4)cc3[C@@H]21
    5	-3
COc1ccccc1C(=O)N1C[C@H]2[C@@H](c3ccccc31)[C@@H](CO)N2C(=O)C1CCCCC1
    5	15
CCC(=O)N(C)C[C@H]1Oc2ncc(-c3ccc(C(=O)N(C)C)cc3)cc2C(=O)N([C@H](C)CO)C[C@H]1C
    -20	-1
Cc1noc(C)c1S(=O)(=O)Nc1ccc2c(c1)C(=O)N([C@H](C)CO)C[C@H](C)[C@H](CN(C)C(=O)NC(C)C)O2
    7	6
CC(=O)N1CCCCN2[C@H](CO)[C@@H](c3ccc(-c4cccc(C(=O)N(C)C)c4)cc3)[C@H]2C1
    20	6
Cc1noc(C)c1NC(=O)N(C)C[C@H]1Oc2ncc(C#CC3CCCC3)cc2C(=O)N([C@H](C)CO)C[C@H]1C
    8	1
COCCNC(=O)C[C@@H]1C[C@@H]2c3cc(N(C)C)ccc3O[C@@H]2[C@H](CO)O1
    7	16
NC(=O)[C@@H]1[C@H]2C(=O)O[C@H](c3ccccc3)[C@H](c3ccccc3)N2[C@H](c2ccc(O)cc2)[C@@]12C(=O)Nc1ccc(C#CC3(O)CCCCCC3)cc12
    -9	-6
CO[C@H]1CC[C@H]2CCN(C)C(=O)[C@H](C)N(C)C(=O)c3cccc(C#N)c3OC[C@H]1O2
    8	0
Cc1noc(C)c1NC(=O)Nc1ccc2c(c1)C(=O)N([C@@H](C)CO)C[C@@H](C)[C@H](CN(C)Cc1ccc(Cl)c(Cl)c1)OCCCC[C@H](C)O2
    ?	·
Cc1ccc(S(=O)(=O)N(C)C[C@@H]2Oc3cc(-c4cccc(F)c4)ccc3S(=O)(=O)N([C@H](C)CO)C[C@H]2C)cc1
    ?	·
O=C(C[C@H]1C[C@@H]2c3cc(NC(=O)Nc4ccccc4F)ccc3O[C@@H]2[C@H](CO)O1)NCc1ccncc1
    18	15
C[C@H](CO)N1C[C@H](C)[C@@H](CN(C)Cc2ccc(C(=O)Nc3ccccc3N)cc2)OCc2cnnn2CCCC1=O
    1	0
O=C(N[C@H]1CC[C@@H](CCNC(=O)C2CCC2)O[C@@H]1CO)c1ccncc1
    1	7
C[C@H]1CN([C@@H](C)CO)C(=O)c2cc(NS(=O)(=O)c3ccc(Cl)cc3)ccc2O[C@@H]1CN(C)C(=O)Nc1ccc2c(c1)OCO2
    -2	-6
CO[C@H]1CN(C)C(=O)c2cc(NC(=O)C3CC3)ccc2OC[C@@H](C)N(C(=O)c2ccccc2F)C[C@H]1C
    -4	-2
C[C@H](O)C#Cc1ccc2c(c1)O[C@@H](CN(C)C(=O)CN(C)C)[C@@H](C)CN([C@@H](C)CO)S2(=O)=O
    9	9
C[C@H](CO)N1C[C@H](C)[C@@H](CN(C)CC2CC2)Oc2ccc(NC(=O)C3CC3)cc2CC1=O
    7	10
C[C@@H]1CN([C@@H](C)CO)C(=O)c2ccccc2-c2ccccc2CO[C@@H]1CN(C)C(=O)Nc1cccc(Cl)c1Cl
    -18	-13
CNC[C@H]1Oc2ccc(NC(=O)CCCN(C)C)cc2C(=O)N([C@@H](C)CO)C[C@H]1C
    -1	-8
Cc1ccccc1-c1cnc2c(c1)C(=O)N([C@@H](C)CO)C[C@@H](C)[C@H](CN(C)Cc1cccnc1)O2
    -27	-27
CCCC#Cc1ccc2c(c1)O[C@@H](CN(C)C(=O)NC(C)C)[C@H](C)CN([C@H](C)CO)S2(=O)=O
    -21	-15
CC(C)NC(=O)N(C)C[C@H]1Oc2ccc(NC(=O)CCCCCC(=O)Nc3ccccc3N)cc2C(=O)N([C@@H](C)CO)C[C@H]1C
    32	10
C[C@@H]1CN([C@@H](C)CO)C(=O)c2cccc(NC(=O)c3cnccn3)c2O[C@H]1CN(C)S(=O)(=O)c1cccs1
    -30	-21
Cc1cc(C(=O)Nc2cccc3c2O[C@@H](CN(C)Cc2ccc(-c4ccccc4)cc2)[C@@H](C)CN([C@@H](C)CO)C3=O)n(C)n1
    -15	-5
C[C@H]1CN([C@@H](C)CO)C(=O)c2cccc(NC(=O)C3CC3)c2O[C@@H]1CN(C)C(=O)Nc1ccc(F)cc1
    13	4
C[C@H](CO)N1C[C@H](C)[C@@H](CN(C)C(=O)Nc2cccc(F)c2)OCc2cnnn2CCCC1=O
    -5	-6
CN(C)C(=O)[C@@H]1[C@@H](CO)[C@@H]2Cn3c(ccc(C4=CCCCC4)c3=O)[C@H]1N2C
    1	2
O=C(C[C@H]1CC[C@@H]2[C@H](COC[C@H](O)CN2S(=O)(=O)c2ccc(F)cc2)O1)NCc1ccc(Cl)c(Cl)c1
    ?	·

Further compounds
The line under a structure holds: Vaccinia stage	Vaccinia stage Venus
CN(C)CC(=O)N1CCCCN2[C@H](CO)[C@H](c3ccc(/C=C/c4ccccc4)cc3)[C@H]2C1
    ?	·
CN1CCCCN2[C@H](CO)[C@@H](c3ccc(-c4cccnc4)cc3)[C@H]2C1
    27	2
Cn1cnc(S(=O)(=O)N[C@@H]2CC[C@H](CC(=O)N3CCN(c4ccccc4)CC3)O[C@@H]2CO)c1
    -1	4
COCC(=O)N[C@H]1C=C[C@H](CC(=O)NCc2ccccc2OC)O[C@@H]1CO
    7	11
C[C@@H]1CN([C@H](C)CO)C(=O)c2cc(NC(=O)Cc3cn(C)c4ccccc34)ccc2O[C@H]1CN(C)C(=O)Nc1ccc(F)cc1
    11	15
COc1ccc(NC(=O)N2CCCCN3[C@H](CO)[C@@H](c4ccc(C5=CCCCC5)cc4)[C@H]3C2)cc1
    ?	·
O=C(c1ccccc1)N1CC2(C1)[C@@H](c1ccccc1)[C@@H](CO)N2Cc1ccccn1
    -4	-5
C[C@H]1CCCCO[C@@H](CN(C)C(=O)c2ccncc2)[C@@H](C)CN([C@@H](C)CO)C(=O)c2cc(NS(C)(=O)=O)ccc2O1
    15	13
CCNC(=O)[C@H]1[C@H](CO)[C@H]2Cn3c(ccc(-c4ccccc4F)c3=O)[C@H]2N1C
    19	15
O=C(NC1CCCC1)[C@H]1[C@H](CO)[C@H]2Cn3c(cccc3=O)[C@@H]1N2Cc1cc(F)ccc1F
    11	7
CNC(=O)C[C@H]1CC[C@H]2[C@@H](COC[C@@H](O)CN2C(=O)c2ccccn2)O1
    2	9
O=C(C[C@H]1CC[C@H](NC(=O)C2CCOCC2)[C@H](CO)O1)Nc1nccs1
    5	5
COc1ccc2c3c(n(C)c2c1)[C@H](CO)NCC31CN(C(=O)CC2CC2)C1
    7	1
Cc1ccc(-c2ccc([C@H]3[C@@H](CO)N4CCCCN(C(=O)c5ccncc5)C[C@H]34)cc2)cc1
    -20	-31
Cc1noc(C)c1NC(=O)Nc1ccc2c(c1)C(=O)N(C)[C@H]1CC[C@H](CC(=O)N(C)C)O[C@H]1CO2
    9	12

Another view of 4 compounds above.
SMILES: CN1CCCCN2[C@H](CO)[C@@H](c3ccc(-c4cccnc4)cc3)[C@H]2C1
- Vaccinia stage = 27
- Vaccinia stage Venus = 2

SMILES: Cn1cnc(S(=O)(=O)N[C@@H]2CC[C@H](CC(=O)N3CCN(c4ccccc4)CC3)O[C@@H]2CO)c1
- Vaccinia stage = -1
- Vaccinia stage Venus = 4

SMILES: COCC(=O)N[C@H]1C=C[C@H](CC(=O)NCc2ccccc2OC)O[C@@H]1CO
- Vaccinia stage = 7
- Vaccinia stage Venus = 11

SMILES: C[C@@H]1CN([C@H](C)CO)C(=O)c2cc(NC(=O)Cc3cn(C)c4ccccc34)ccc2O[C@H]1CN(C)C(=O)Nc1ccc(F)cc1
- Vaccinia stage = 11
- Vaccinia stage Venus = 15

Remaining list, next part.
The line under a structure holds: Vaccinia stage	Vaccinia stage Venus
CC(=O)N(C)C[C@@H]1Oc2ncc(C#CCC3CCCC3)cc2C(=O)N([C@H](C)CO)C[C@H]1C
    14	12
C[C@H](CO)N1C[C@H](C)[C@@H](CN(C)C(=O)Nc2ccc(F)cc2)OCc2cn(nn2)CCCC1=O
    12&16	13&16
CO[C@H]1CN(C)C(=O)c2cc(NC(=O)C3CC3)ccc2OC[C@H](C)N(Cc2nccs2)C[C@H]1C
    1	3
COc1ccc2c3c([nH]c2c1)[C@@H](CO)N(C(=O)Nc1ccc(F)cc1)CC31CCN(CC2CC2)CC1
    -27	-20
CC(C)NC(=O)N(C)C[C@@H]1Oc2ccc(NC(=O)Cc3ccccc3)cc2CC(=O)N([C@H](C)CO)C[C@H]1C
    14	4
Cc1noc(C)c1S(=O)(=O)N(C)C[C@@H]1Oc2ccc(NC(=O)CCC(F)(F)F)cc2CC(=O)N([C@H](C)CO)C[C@@H]1C
    11	10
C/C=C/c1ccc([C@H]2[C@@H](CO)N(CC3CCCC3)[C@@H]2CNC(=O)NC(C)C)cc1
    -27	-13

Only part of the results is shown. The share of hits here may be higher or lower than overall.
